# PrP UTR inh: inhibition of PrP 5' UTR reporter expression; cell-based PrP 5' UTR mRNA reporter, plate reader; inhibition, % (test concentration not listed); 0.35% of 340,000 active;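 active means every replicate at 50% or more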;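 further: 0 = median of the neutral control wells; tested in H4 reporter cells; numbers are from one replicate; inactives centre near -14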
# BJeLR viability: MLPCN primary cell-based screen for lethality selective to Ras in HRASV12 cells | 0.17% of 300,000 active | inhibition, % (test concentration not listed) | BJeLR (HRASV12) viability, CellTiter-Glo ATP luminescence, 48 h; reference of the scale not given here;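 active means replicate mean above 50%; inconclusive means above 50% but judged a plate artefact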;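 further: 50 nL library stock added to about 25 µL; numbers are from one replicate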
# Sa ugtP lethal: growth inhibition of ugtP-null S. aureus, primary screen, RN4220 ugtP deletion, OD600; 16 h; some inactives read as strong as hits; growth inhibition, % (no concentration beside the values); 0.54% of 330,000 active;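 active means z-score under -3 and OD600 up to 0.15 on both plates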;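 further: plate controls were untreated wells for no effect and antibiotic for full effect; wells of about 80 µL received 100 nL stock; the first replicate is given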
# RN4220 kill: growth inhibition of S. aureus RN4220, primary screen, OD600; inhibition, % (concentration not given with the values); AID 1259311, 2017; 0.33% of 330,000 active; 16 h;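 active means z-score of -3 or lower and OD600 up to 0.18 on both plates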;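 further: plate controls were untreated cells for no effect and reference antibiotic for full effect; stock transfer was 100 nL into about 80 µL; one replicate is shown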
# Autofluor counter: flagged as autofluorescent in microsphere protease counterscreen; compound autofluorescence counterscreen, microsphere flow cytometry; hits give high values; 3.1% of 360,000 active; AID 624483; fluorescence intensity (no concentration beside the values);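 active means at least 3 SD above the mean of all compounds, about 16000 in these data; inconclusive means too few beads counted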;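 further: 100 nL of 1 mM stock went into each well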
# Mtb hypoxia inh: PubChem AID 1159583 | fluorescence inhibition, % (no concentration beside the values) | M. tuberculosis hypoxia-regulated fluorescent reporter, fluorescence | 0.1% of 300,000 active;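 active means 35 to 45% if threefold the growth effect, above 45% if 1.5-fold the growth effect; inactive means the rest, general growth blockers included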;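 further: wells of about 50 µL received 100 nL stock; 0% = vehicle wells and 100% = reference inhibitor wells; whole bacteria with a GFP reporter of the hypoxia response; strong numbers were not always called active; many hits fall short of the cut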
# Mtb hypoxia inh growth: recorded beside Mtb hypoxia inh, whose call it bears; growth inhibition, %; measured here: M. tuberculosis growth (absorbance);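 0% = vehicle and 100% = reference antibiotic; read after six days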
# The depositor's hits bear a star; ? = inconclusive; nt = not tested or not shown.
canonical_smiles	Sa ugtP lethal	Autofluor counter	PrP UTR inh	Mtb hypoxia inh	RN4220 kill	BJeLR viability	Mtb hypoxia inh growth
Cc1cccc(N2CCN(C(=O)c3cc(COc4ccc(F)c(F)c4)on3)CC2)n1	-19	5766	-35	15	3.2	-7	4
CCC(C)N1C(=O)CCC1C(=O)NCc1ccc2c(c1)OCO2 (centres undefined)	-5	5175	-15	-3	4.0	1	9
NC(=O)c1nsc(C(=O)N(c2ccccc2F)C(C(=O)NCc2ccc(F)cc2)c2ccc(O)cc2)c1N (centres undefined)	nt	5529	-12	nt	nt	21	nt
Cc1ccc(C)c(N2CCN(CC3CCCCC3)CC2)c1	7	3786	1	17	5.4	2	25
CC(=NNC(=O)c1cc(-c2ccccc2)nc2c(Cl)cccc12)c1cccnc1	16	nt	nt	-4	-4.2	nt	-8
COc1ccc(NC(=O)CN2CCC(C(=O)c3ccc(F)cc3)CC2)c(OC)c1	4	3592	-31	7	5.2	-2	7
O=C(CCc1nc2ccccc2c(=O)[nH]1)Nc1cc(Cl)ccc1N1CCCC1	0	3781	-6	-1	2.0	nt	0
COc1ccc(/C=C/C(=O)Nc2cccc(N3CCOCC3)c2)cc1OC	12	7730	-21	6	-3.1	1	-1
N#C/C(Cn1c[n+](NC(=O)Nc2ccccc2)cn1)=N/O	nt	3128	4	nt	nt	3	nt
CC1CN(CC(O)COc2ccccc2C(C)(C)C)CC(C)O1 (centres undefined)	3	4615	-28	nt	14	3	nt
O=C(NNS(=O)(=O)c1ccccc1C(F)(F)F)c1cccc(S(=O)(=O)Nc2ccccc2Cl)c1	-11	9003	-16	10	37	4	8
O=C(CN1CCN(c2ccc(O)cc2)CC1)NC1CCCc2ccccc21 (centres undefined)	3	nt	nt	10	3.0	4	1
COc1ccc(NC(=O)c2cn(C)c(=O)c3cc(OC)c(OC)cc23)cc1OC	3	3873	-14	2	-0.8	4	-3
O=C(NCCCn1ccnc1)c1nc(Cn2ccc([N+](=O)[O-])n2)no1	17	4533	-14	0	2.1	1	-15
COc1ccc(OC)c(NC(=O)c2ccc(NS(C)(=O)=O)cc2)c1	5	9402	-36	9	3.1	5	10
N/C(COc1ncn(-c2ccccc2)n1)=N\S(=O)(=O)c1ccccc1	1	1949	-24	17	7.9	9	5
CCN1c2ccccc2NC2N=C(OC)C(c3ccccc3)C21 (centres undefined)	2	25940*	-49	6	2.5	-19	4
Cc1cc(C)n(CCCNC(=O)Cn2nnnc2CN2C[C@@H](C)O[C@@H](C)C2)n1	0	5011	-25	1	0.3	6	2
COc1cccc(C2C(C(=O)c3ccc(C)o3)=C(O)C(=O)N2CCN2CCOCC2)c1 (centres undefined)	-5	5921	-10	-2	0.0	-6	13
NC(=O)c1nn(-c2ccccc2)nc1NC(=O)CN1CCCCC1	-2	5081	-24	3	3.7	-5	6
CC1Cc2ccccc2N1C(=O)c1ccc2c(c1)OCO2 (centres undefined)	1	5941	-9	-13	4.0	3	-2
CC1CN(C(=O)COC(=O)c2ccc(Cl)nc2)CC(C)O1 (centres undefined)	18	3259	-8	7	7.9	4	-2
CCOc1ccc(C(=O)NCCn2cc(SCC(=O)Nc3cc(C)on3)c3ccccc32)cc1	2	3906	4	nt	-3.8	-1	nt
COc1ccccc1C1(O)C(=O)Nc2ccc(C)cc21 (centres undefined)	-3	3222	7	13	-0.1	9	1
CC1(C)CC(CCNC(=O)CCl)(c2ccccc2)CCO1 (centres undefined)	-12	4052	-17	-9	1.3	8	1
Cn1c(CNC(=O)OC(C)(C)C)nnc1SCC(=O)N1CCOCC1	-1	5856	0	-8	-0.2	3	11
O=[N+]([O-])c1cccc(S(=O)(=O)c2ccc(N3CCCCC3)c([N+](=O)[O-])c2)c1	6	10702	-32	14	3.4	-7	-2
COc1ccc(-c2csc(NC(=S)NC(=O)/C=C/c3ccc(C(C)C)cc3)n2)cc1OC	-4	6109	-14	2	2.3	4	5
CCC(C)NC(=O)c1ccc(N2CCC3(CC2)OCCO3)c([N+](=O)[O-])c1 (centres undefined)	1	2645	-25	3	4.0	5	0
Cn1c(SCC(=O)Nc2sccc2C(N)=O)nnc1-c1ccncc1	-2	5148	-14	14	-0.7	5	5
CC1C=CCC2C(=O)N(c3ccccc3OC(=O)c3ccco3)C(=O)C12 (centres undefined)	1	3962	-2	2	2.1	-3	1
Cc1cccc(NC(=O)c2cccc(Cn3cc(Br)c([N+](=O)[O-])n3)c2)c1C	9	2668	-1	nt	9.5	1	nt
C=CCn1c(COc2cccc3ccc(C)nc23)nnc1SCC(N)=O	9	3536	-2	3	2.8	-18	11
O=C(CCCc1c[nH]c2ccccc12)NCC1COc2ccccc2O1 (centres undefined)	-71	3669	-3	9	18	-22	3
COc1ccc(C(=O)NCCS(=O)(=O)NCCc2ccccc2)cc1	5	?	-66	-8	3.9	-8	7
Cn1cccc1CC(=O)N/N=C/c1ccco1	nt	6340	-13	nt	nt	-8	nt
COc1ccc(-c2[nH]ncc2C=NNC(=O)c2cccs2)cc1OC	2	nt	nt	3	1.1	nt	13
CC(=O)Nc1ccc(NC(=O)C(C)OC(=O)CCC2CCCC2)cc1 (centres undefined)	3	?	-21	2	-0.9	-5	-3
COc1ccc(/C=N/NC(=O)c2cccnc2)cc1O	nt	3598	-27	nt	nt	7	nt
CCCCC1CNCCN1CCc1cccc2ccccc12 (centres undefined)	0	nt	nt	3	0.1	nt	-5
COc1cc2c(cc1OC)CN(c1ccc3ccccc3n1)CC2	nt	6290	-27	nt	nt	-4	nt
O=C(NN=Cc1ccccc1)c1cccc2ccccc12	11	nt	nt	14	2.1	nt	7
CCOC(=O)CSc1nc(NC#N)nc(N(CC)CC)n1	-2	6559	3	-1	1.4	5	14
Cn1c(SCC(=O)N2c3ccccc3CCc3ccccc32)nnc1-c1cc2ccccc2cc1O	7	1953	-17	9	1.5	2	2
CCOC(=O)c1c(C)nn(-c2ncccc2NC(=O)NC(C)C)c1C	0	3667	-14	1	1.6	-4	12
O=C(c1ccco1)C(O)c1ccco1 (centres undefined)	nt	3997	-3	nt	nt	1	nt
C[C@@H]1CC=C[C@H]2[C@H]1C(=O)N(Cc1ccccc1)[C@H]2c1ccc(-c2cc3ccccc3s2)cc1F	nt	3924	-74	nt	nt	-2	nt
COc1ccc2cc3cc(C(=O)Nc4ccc5c(c4)OCO5)oc3nc2c1	-6	4824	-8	0	0.0	-3	14
COc1ccccc1/C=C/C=NNC(=O)CN1CCN(Cc2ccccc2)CC1	1	nt	nt	-2	1.5	nt	4
CC(C)(C)c1cc(C(=O)N/N=C/c2ccc(O)cc2)n(-c2ccccc2)n1	nt	1998	-21	nt	nt	4	nt

# New compounds follow:
canonical_smiles	Sa ugtP lethal	Autofluor counter	PrP UTR inh	Mtb hypoxia inh	RN4220 kill	BJeLR viability	Mtb hypoxia inh growth
CCCn1nnnc1NCc1ccc(N(CC)CC)cc1	6	4598	-23	10	2.6	9	-8
O=C(CSc1nnnn1-c1ccccc1)Nc1ccc(Cl)cn1	41	2344	1	4	11	3	6
COc1ccc(NC(=O)c2ccccc2-c2ccc(C(F)(F)F)cc2)cc1S(=O)(=O)N1CCOCC1	7	6708	-25	8	2.5	-10	-1
O=C1c2ccccc2C(=O)N1OS(=O)(=O)c1ccccc1	3	nt	nt	6	3.4	2	5
Cc1ccc(C(C(=O)NC2CCCCC2)N(Cc2cccnc2)C(=O)c2csnn2)cc1 (centres undefined)	5	3847	-21	-4	-3.4	3	0
CCOC(=O)c1sc(SCC(=O)Nc2ccc(N(C)C)cc2)nc1N	3	10109	-32	18	5.8	0	20
COc1ccc(C2=NN(C(=O)CSc3ncccn3)C(c3cccc(OC)c3OC)C2)cc1 (centres undefined)	-2	4009	-19	-2	3.2	2	15
COc1ccc(C(=O)Oc2cc(N)n(S(=O)(=O)c3ccccc3)n2)cc1	1	2454	-19	4	2.5	-3	10
O=C(Cn1cnc2c(oc3ccccc32)c1=O)N1CCCc2ccccc21	-8	?	-24	-5	-2.5	4	0
CCS(=O)(=O)Nc1cccc(C2=NN(S(=O)(=O)c3ccc(C)cc3)C(c3ccco3)C2)c1 (centres undefined)	5	2485	-23	10	8.0	-8	2
CCOC(=O)C1(C)/C(=N/Nc2ccccc2Cl)C(=O)C(=O)N1c1ccccc1 (centres undefined)	-12	9730	0	10	12	1	5
O=C(CCCCCn1c(=S)[nH]c2ccc(N3CCOCC3)cc2c1=O)NC1CCN(Cc2ccccc2)CC1	1	6710	-9	-3	6.0	-3	-4
Cc1cc(C)nc(NS(=O)(=O)c2ccc(NC(=O)c3ccc4c(c3)OCCO4)cc2)n1	2	4686	6	11	2.4	8	12
COc1ccc(SC[C@H](CC(C)C)N2CCN(C)CCC2=O)cc1	nt	3837	-19	nt	nt	8	nt
CCOc1ccc(C(=O)Nc2ccc3c(c2)OCO3)cc1OCC	4	4108	-25	-1	1.7	7	-2
Nc1cc(=O)[nH]c(SCc2nnnn2-c2ccc(Cl)cc2)n1	3	2200	-13	-6	-0.8	0	2
COc1cc(/C=N/NC(=O)c2ccncc2)cc2c1OCO2	nt	3050	-25	nt	nt	12	nt
Cn1c(O)c(N=NC(=O)CNC(=O)c2cccnc2)c2ccccc21	-2	5606	-22	-5	2.6	-8	2
CCOc1ccc(C(=O)NCC(=O)NNC(=O)CN(C)S(=O)(=O)c2ccc(Cl)cc2)cc1OCC	6	3459	-7	1	6.9	nt	6
CCn1c(NCc2ccccc2NS(=O)(=O)c2ccc(C)cc2)nc2ccccc21	-1	2475	-18	14	-6.3	-7	1
CCOC(=O)N1CCN(CC(O)COc2c(C)cc(C)cc2C)CC1 (centres undefined)	10	2777	-7	2	-0.1	0	1
Cc1sc2nc(SCC(=O)Nc3cccc(S(N)(=O)=O)c3)[nH]c(=O)c2c1C	1	7948	-18	7	-3.3	nt	11
C=CCNc1nc(-c2cc3ccccc3o2)cs1	-3	7761	-35	11	1.0	-9	5
COc1cccc(-c2cc(C(=O)N3CC4(C)CC3CC(C)(C)C4)no2)c1 (centres undefined)	-15	7893	-3	3	4.2	nt	3
Cc1cc(=O)[nH]c(SC(C(=O)O)c2ccccc2)n1 (centres undefined)	9	7509	-12	2	2.9	-25	7

# Rewritten field by field: entries from further up.
> Nc1cc(=O)[nH]c(SCc2nnnn2-c2ccc(Cl)cc2)n1
- Sa ugtP lethal: 3
- Autofluor counter: 2200
- PrP UTR inh: -13
- Mtb hypoxia inh: -6
- RN4220 kill: -0.8
- BJeLR viability: 0
- Mtb hypoxia inh growth: 2

> COc1cc(/C=N/NC(=O)c2ccncc2)cc2c1OCO2
- Sa ugtP lethal: nt
- Autofluor counter: 3050
- PrP UTR inh: -25
- Mtb hypoxia inh: nt
- RN4220 kill: nt
- BJeLR viability: 12
- Mtb hypoxia inh growth: nt

> Cn1c(O)c(N=NC(=O)CNC(=O)c2cccnc2)c2ccccc21
- Sa ugtP lethal: -2
- Autofluor counter: 5606
- PrP UTR inh: -22
- Mtb hypoxia inh: -5
- RN4220 kill: 2.6
- BJeLR viability: -8
- Mtb hypoxia inh growth: 2

# The list continues:
canonical_smiles	Sa ugtP lethal	Autofluor counter	PrP UTR inh	Mtb hypoxia inh	RN4220 kill	BJeLR viability	Mtb hypoxia inh growth
Cc1ccc(NC(=O)CCC(=O)NN=Cc2coc3ccccc3c2=O)cc1	4	nt	nt	7	5.4	nt	9
COc1ccc(N/C=C/C(=O)c2sc(-c3ccccc3)nc2C)cc1	-1	2814	-16	nt	-0.1	12	nt
Cc1cc(C)c(NC(=O)COC(=O)C2CCCO2)c(C)c1 (centres undefined)	3	3846	-44	5	1.9	nt	0
CC(C)(C)NCC(O)COc1cccc2c1CCC(=O)N2 (centres undefined)	-3	5972	-12	2	3.8	nt	2
Cc1ccc(S(=O)(=O)N2[C@@H](c3ccc(Cl)cc3)C(C(=O)O)=C[C@H]2C(C)(C)C)cc1	-8	3397	-25	-6	8.2	nt	1
O=C1Cc2ccccc2C(c2ccccc2)N1 (centres undefined)	1	13352	-18	4	1.5	1	10
Cc1ccc(N2C(=O)NC(=O)C3(Cc4ccccc4N4CCN(c5ccccc5)CC43)C2=O)cc1 (centres undefined)	-9	19868*	-18	1	3.1	0	12
COc1ccc(S(=O)(=O)N2CCOCC2)cc1NC(=O)c1cccc(Cl)c1	-4	5380	-6	6	4.4	4	10
O=C1C(c2ccc(F)cc2)N(Cc2ccc3c(c2)OCO3)C(=O)CN1C1CCCCC1 (centres undefined)	20	20863*	-25	2	2.1	1	0
Fc1ccccc1N1CCN(Cc2cccnc2)CC1	6	2558	-19	-1	5.6	-6	0

# Screening data: PubChem BioAssay, several laboratories
